# H5N1 CPE: MDCK cell protection from H5N1 avian flu | actives 0.07% (n = 96,000) | cytopathic effect, luminescence, 72 h; stronger effect = higher value; no value below 0 was filed and about half of the inactive calls have no number; reference of the scale not given here | inhibition, % at 50 µM; in the data active = inhibition above about 25%
# * marks the source's active call; other numbers are inactive results; i = inactive.
compound,H5N1 CPE
COc1cccc(-c2nnc(NC(=O)C(C)C)o2)c1,0.6
N#CCCN(Cc1cccnc1)S(=O)(=O)c1ccc(S(=O)(=O)N2CCCCCC2)cc1,i
Cn1c(=O)c(=O)n(C)c2cc(S(=O)(=O)CCC(=O)N3CCOCC3)ccc21,0.6
CC(Oc1ccccc1)C(=O)Nc1ccccc1O (stereo unspecified),0.2
O=C1CC(NCc2ccccc2F)C(=O)N1c1ccccc1 (stereo unspecified),0.4
COc1ccc(CCn2c3c(c(=O)[nH]c2=O)C(NC(=O)c2cccs2)(C(F)(F)F)C(=O)N3)cc1OC (stereo unspecified),0.2
COc1cccc(NC(=O)CSc2nnc(-c3ccoc3C)n2CC2CCCO2)c1 (stereo unspecified),1.0
O=C(Nc1ccc2c(c1)OCO2)C1CCCN1C(=O)NCc1ccccc1 (stereo unspecified),i
CCOC(=O)c1sc2nccc(N(C)C)c2c1N=CNOC,i
Cc1nc2nc(-c3ccccc3)cn2nc1C,i
O=C(CSc1ncn(-c2ccccc2)n1)Nc1ccc2c(c1)OCO2,i
Cc1c(Cl)c(-c2n[nH]c(=S)n2Cc2ccco2)nn1C,i
CN1C(=O)/C(=C/c2cc(N=Nc3ccccc3)ccc2O)SC1=S,i
COCCCN1C(=O)c2ccc(C(=O)Nc3ccccc3OC)cc2C1=O,i
CCOC(=O)N1CCN(C(=O)CSCc2ccc(C)cc2)CC1,0.3
NC(=O)C1CCCN(C(=O)Nc2cccc3ccccc23)C1 (stereo unspecified),i
N#CC1=C(N)OC2=C(C(=O)CCC2)[C@]12C(=O)N(CC(N)=O)c1ccccc12,0.5
O=C(CCSc1nc2cc(Cl)ccc2o1)N1CCOCC1,0.2
CC1CCCC(C)N1C(=O)c1ccccc1Nc1ccc(SC(F)F)cc1 (stereo unspecified),3.4
COC(=O)CSc1nc(N2CCOCC2)c2c(c1C#N)CC(C)(C)N(C)C2,1.0
COc1cc(S(=O)(=O)N2CCN=C2c2ccccc2)ccc1F,i
Cc1ccc2cccc(OC(=O)N(C)c3ccccc3)c2n1,i
CCC(C)N=CC1=C(O)CC(c2ccccc2)CC1=O (stereo unspecified),i
O=C(Cn1c(=O)n(Cc2ccco2)c(=O)c2c3c(sc21)CCCC3)Nc1ccccc1,0.5
CC(NC(=O)Cc1cccs1)c1ccncc1 (stereo unspecified),3.0
COc1ccc(CN(C(C)=O)c2cccc(C)c2C)cc1,i
COC(=O)c1ccccc1NC(=O)C1CC(=O)N(c2ccc(C)cc2)C1 (stereo unspecified),i
CCOC(=O)Nc1nc(-c2ccccc2)c(C(=O)c2ccccc2)s1,i
O=C(CSc1nc2ccccc2o1)N1c2ccccc2Sc2ccc(Cl)cc21,i
Cc1ccc2c(c1)NC(=O)C(CC(=O)NCCCN1CCCCC1)O2 (stereo unspecified),1.7
Cc1nc2[nH]c(=S)[nH]c2cc1Br,0.3
O=C(O)C1C2C=CC(C2)C1C(=O)N1CCN(CCO)CC1 (stereo unspecified),0.7
Cc1cccc(N2CCN(C(=O)c3cccc(N4C(=O)C5CC=CC(C)C5C4=O)c3)CC2)c1C (stereo unspecified),1.0
O=C(Nn1c(O)c(C=C2N=c3ccccc3=N2)sc1=S)c1ccccc1,1.3
CC1CCN(c2oc(-c3cccc4ccccc34)nc2C#N)CC1,8.4
CN(C)c1ccc(-c2nnn(Cc3ccccc3Br)n2)cc1,i
Cc1nc2c([nH]c3ccc(Br)cc32)s1,i
Cc1nn(C)cc1/C=C/C(=O)c1ccccc1,1.7
COC(=O)COc1cccc(NC(=O)COc2ccccc2)c1,i
COc1ccc(N2CCc3c(C)nc4c(OC)cc(OC)cc4c32)c(OC)c1,9.0
CCOC(=O)C1CCCCN1Cc1cccc(C(F)(F)F)c1 (stereo unspecified),0.1
Cc1ccccc1-n1nc2c(c1NC(=O)c1cc3ccccc3oc1=O)CS(=O)C2 (stereo unspecified),i
Cc1csc(NC(=O)c2c(O)c3c(n(CC(C)C)c2=O)CCCC3)n1,5.4
Cc1ccc(OCC(O)CN2CCN(CC(O)COc3ccc(C)cc3Cl)CC2)c(Cl)c1 (stereo unspecified),i
Cc1ccccc1-n1nc(C)c2cc(C(=O)NC3CC3)sc21,i
COc1ccc(CN2C(=O)CN(C3CCCCCC3)C(=O)C2c2ccc(OC)c(OC)c2)cc1 (stereo unspecified),i
Cc1csc(NC(=O)CSc2nnc(-c3cccs3)n2C)n1,2.7
COC(=O)c1c(C)[nH]c(C(=O)CSc2ccc(Cl)cc2)c1C,0.8
COc1ccc(C2C(=O)c3ccccc3C2=O)c(OC)c1,0.5
CC(C)C(NC(=O)c1cccs1)C(=O)NC1=NCCS1 (stereo unspecified),1.0

# Reprinted from the part before: two entries, followed by the next part.
compound,H5N1 CPE
COc1ccc(C2C(=O)c3ccccc3C2=O)c(OC)c1,0.5
CC(C)C(NC(=O)c1cccs1)C(=O)NC1=NCCS1 (stereo unspecified),1.0
O=C(Nc1nc2ccccc2s1)C1CCCO1 (stereo unspecified),i
Cc1nn(-c2ccccc2)c(Cl)c1/C=C(\CC(=O)O)c1nc2ccccc2s1,i
CCCCc1cc(=O)oc2cc(C)cc(OCC(=O)O)c12,0.6
CC1(C)Cc2cccc(OCC(=O)NC3CC3)c2O1,i
CN=CC1=C(O)c2ccccc2C1=O,0.8
CC1N(O)C(c2ccc(Cl)cc2Cl)N(O)C1(C)C (stereo unspecified),0.5
Cc1cc(NC(=O)CSc2nnc(C3COc4ccccc4O3)o2)no1 (stereo unspecified),i
CC1CCCN(C(=O)c2ccncc2)C1 (stereo unspecified),0.2
COc1ccc(/C(O)=C2/C(=O)C(=O)N(CCCC(=O)O)C2c2ccc(OC)cc2)cc1 (stereo unspecified),0.3
Nc1nc(Nc2ccc(Cl)cc2)nc2ccccc12,i

# Given with each value named: four of the compounds above.
Molecule: CN(C)c1ccc(-c2nnn(Cc3ccccc3Br)n2)cc1
  H5N1 CPE = i

Molecule: Cc1nc2c([nH]c3ccc(Br)cc32)s1
  H5N1 CPE = i

Molecule: Cc1nn(C)cc1/C=C/C(=O)c1ccccc1
  H5N1 CPE = 1.7

Molecule: COC(=O)COc1cccc(NC(=O)COc2ccccc2)c1
  H5N1 CPE = i

# (further entries)
compound,H5N1 CPE
O=c1[nH]cnc2cc(-c3ccccc3)sc12,0.9
COc1cccc(C(=O)Nc2ncc3c(n2)CC(C)CC3=O)c1 (stereo unspecified),0.1
CCC1(CC)C(=O)NC(=O)NC1=NCCc1c[nH]c2ccccc12,0.3
CCCOc1cccc(C(=O)N(Cc2ccc(OC)c(OC)c2)C2CCS(=O)(=O)C2)c1 (stereo unspecified),1.1
COc1c(F)c(F)c(C(=O)Nc2ccccc2N2CCN(C(=O)C(C)C)CC2)c(F)c1F,0.3
c1ccc2[nH]c(CSc3nc4ccccc4s3)nc2c1,i
O=c1c2c(nc3nc[nH]n13)CCC2,i
COc1cc(/C=C2/SC(=O)N(Cc3ccccc3)C2=O)ccc1OCc1ccncc1,0.1
c1ccc2[nH]c(CN3CCCCCC3)nc2c1,i
COC(=O)c1sccc1-n1cccc1C(=O)C(=O)N1CCCCC1,0.5
CON1C(=O)CN(C(C)=O)C1c1ccc(Cl)cc1Cl (stereo unspecified),i
COc1ccc(-n2c(C)nc3c(cnn3-c3ccc(C)c(C)c3)c2=O)cc1,0.1
c1ccc2[nH]c(SCCN3CCOCC3)nc2c1,i
CN(C)C(=O)CSc1nnc(CCCCCNC(=O)OC(C)(C)C)o1,0.7
CCOC(=O)c1cccc(N2C(=O)C3C(C2=O)C2C=CC3C23CC3)c1 (stereo unspecified),i
O=C(C(Cc1ccc(Cl)cc1)NS(=O)(=O)c1ccccc1)N1CC[C@@]2(O)CCCC[C@H]2C1 (stereo partly specified),0.1
O=C(COc1ccccc1Cl)c1ccc2c(c1)CCCC2,i
Cc1cc(C)c(C)c(OCC(=O)NCC2CCCO2)c1 (stereo unspecified),i
COC(=O)[C@H](CCSC)NC(=O)NCCC1=CCCCC1,i
CCN1CCN(C(C(=O)NC2CCCC2)c2ccc(Cl)cc2)CC1 (stereo unspecified),1.1
O=C(NC(=O)c1cccc(OC(F)(F)C(F)F)c1)OC1CCS(=O)(=O)C1 (stereo unspecified),0.0
O=C(Nc1cccc2ccccc12)c1nn(C23CC4CC(CC(C4)C2)C3)cc1[N+](=O)[O-],i
CCC(=O)N(Cc1cc2cc(OC)ccc2[nH]c1=O)c1cccc(C)c1,0.4
Cc1ccc(C(=O)NCC2(c3ccccc3)CCCC2)cc1,1.2
O=C(OC1CCOC1=O)c1ccc2ncsc2c1 (stereo unspecified),0.1
O=C(CCC1CCCCC1)Nc1ccccc1-c1ccccc1,i
CN1CCN(c2nc3c(c(=O)n(C)c(=O)n3C)n2CC(N)=O)CC1,0.1
CN(CCc1ccccn1)C(=O)Nc1ccc(F)cc1,0.5
COc1ccccc1NC(=O)CN1C(=O)NC(C)(C)C1=O,0.1
COC(=O)c1ccc(CSc2ncnc3c2nnn3-c2ccc(OC)cc2)o1,i
CCOC(=O)C1=C(NC(=S)NC(=O)c2ccccc2)c2ccccc2CC1(C)C,7.3
COc1ccc(CCN2CC(O)=C(c3nc(C)cs3)C2=N)cc1OC,0.7
Cn1c(Cc2ccccc2)nnc1SCC(=O)c1cccs1,i
COc1ccc(-c2noc(-c3cc4ccccc4oc3=O)n2)cc1,i
Cc1cc(NC(=O)CSc2nnc(-c3ccoc3C)n2N)no1,1.3
Fc1ccccc1CSc1nnc(-c2ccccc2)o1,0.1
CC(C)NC(=O)c1onc(CSc2ccc(Cl)cc2)c1C(=O)O,0.2
O=C(Nc1cc(-c2nc3ccccc3s2)ccc1Cl)c1ccc2c(c1)OCO2,i
CCOC(=O)C(CC)Sc1nc(N)c(NC(=O)c2ccc(OC)c(OC)c2)c(=O)[nH]1 (stereo unspecified),i
CCN(CCNC(=O)C1CCCN(S(=O)(=O)CC)C1)c1ccccc1 (stereo unspecified),i
CCCCN(C(=O)CCC(=O)O)C1CC(=O)N(c2ccc(OCCC)cc2)C1=O (stereo unspecified),i
COc1cccc2cc(-c3csc(CCn4nc(C)cc4C)n3)c(=O)oc12,i
O=S(=O)(Cc1ccc(Cl)cc1)CC(O)COCc1ccccc1 (stereo unspecified),i
O=C1NC(c2cccs2)Nc2sc3c(c21)CCCC3 (stereo unspecified),i
CCOC(=O)c1c(NC(=O)c2cc(C(C)C)on2)sc(C(C)=O)c1C,i
COc1cc(C(=O)OC(C)CN2CCN(C)CC2)cc(OC)c1OC (stereo unspecified),0.4
COCCNC(=O)C1(C)Oc2ccccc2NC1=O (stereo unspecified),i
CC(C)CNC(=O)C1CCCN1S(=O)(=O)c1ccc(Cl)cc1 (stereo unspecified),0.7
O=C(CSCCNS(=O)(=O)c1ccccc1)Nc1ccccc1,i
Cc1noc(NS(=O)(=O)c2ccc(NC(=O)CSc3n[nH]c(-c4ccccc4)n3)cc2)c1C,0.9

# For reference, some entries already given:
compound,H5N1 CPE
CCCCN(C(=O)CCC(=O)O)C1CC(=O)N(c2ccc(OCCC)cc2)C1=O (stereo unspecified),i
COc1cccc2cc(-c3csc(CCn4nc(C)cc4C)n3)c(=O)oc12,i
O=S(=O)(Cc1ccc(Cl)cc1)CC(O)COCc1ccccc1 (stereo unspecified),i
O=C1NC(c2cccs2)Nc2sc3c(c21)CCCC3 (stereo unspecified),i

# (listing goes on)
compound,H5N1 CPE
Nc1n[nH]c(S(=O)(=O)CCCc2ccccc2)n1,i
CCC(=O)n1nc(NCc2ccc(OC)c(OC)c2)nc1NCc1ccc(OC)c(OC)c1,i
O=C(Nc1ccc(Oc2ccccc2)cc1)C1CCCO1 (stereo unspecified),i
Cn1c(NC(=O)CCC2CCCCC2)cc(=O)n(C)c1=O,i
CC(C)c1nnc(NC(=O)c2c(O)c3cccc4c3n(c2=O)CCC4)s1,9.9
O=S(=O)(c1ccccc1)N1N=C(c2cccs2)CC1c1ccc(Br)cc1 (stereo unspecified),i
CCCCN(CC)c1nc(-c2ccncc2)nc2ccccc12,0.7
CC1(C)Cc2c(ccc3ccccc23)/C(=C/C(=O)N2CCCCC2)N1,4.8
S=C(c1ccccc1)N(c1ccccc1)c1ccccc1,i
Cc1ccc(S(=O)(=O)N2C(=S)SCC2(C)C)cc1,1.7
O=C(NCc1ccccc1)N[C@@H](Cc1ccccc1)C(=O)O,i
COc1ccc(C2c3c(oc4ccccc4c3=O)C(=O)N2CC2CCCO2)cc1 (stereo unspecified),i
CCc1cccc(C)c1NC(=O)C1CCCO1 (stereo unspecified),i
COc1cc(C(=O)NCC(c2cccnc2)N2CCN(C)CC2)cc(OC)c1OC (stereo unspecified),i
O=[N+]([O-])c1ccc(Cl)c(C2Nc3cccc4cccc(c34)N2)c1,0.0
O=S1(=O)CC(N2CCOCC2)c2ccccc21 (stereo unspecified),i
CCOC(=O)C1CCCN(CC(=O)Nc2c(C(=O)OC)[nH]c3ccccc23)C1 (stereo unspecified),0.4
CCCCNC(=O)c1nnn(-c2ccccc2)c1N,i
N#Cc1cc2ccccc2nc1SCC(=O)Nc1ccccc1N1CCOCC1,0.4
C=CCn1c(SCC(O)Cn2c3ccccc3c3ccccc32)nnc1-c1ccco1 (stereo unspecified),i
Cc1cc2nc(C3CCN(Cc4nnnn4Cc4ccccc4)CC3)[nH]c2cc1C,i
CCSc1nnc2c(n1)OC(c1ccc(C(=O)O)cc1)N(C(C)=O)c1ccccc1-2 (stereo unspecified),1.3

# These rows are one share of the data. The share of hits here may be higher or lower than overall.
